Sfp PPTase inh = qHTS Assay for Inhibitors of Bacillus subtilis Sfp phosphopantetheinyl transferase (PPTase) | Potency, µM, without a hit: max response, negative = inhibition, most hits filed as inhibitors | Biochemical Sfp PPTase activity, qHTS | AID 1490, 2009 | 4'-phosphopantetheinyl transferase ffp (Bacillus subtilis), Q9F4F7 | actives 3.5% (n = 310,000); active = well fitted inhibition curve with a large enough effect; inconclusive = small, poorly fitted or top-dose-only effect, or another doubt; inactive = no such curve, though single readings can be large or run the other way;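 also: the enzyme is Sfp with the accession as filed and its product quenches rhodamine fluorescence; potency is read from the fitted curve at half-maximal effect; 0% = enzyme reaction without inhibitor and -100% = no enzyme wells; top concentration of the series not given in the record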
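Compounds were incubated with enzyme (final 15 nM) for 15 min at room temperature before substrate addition started the reaction. Fluorescence at 525 nm excitation, 598 nm emission was recorded immediately and after 30 minutes.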
D2 ag = Beta-Arrestin HTS for Positive Allosteric Modulators of the Human D2 Dopamine Receptor: Agonists | DiscoveRx PathHunter D2 beta-arrestin, luminescence, 90 min; 100% = 57 uM dopamine signal | D(2) dopamine receptor (Homo sapiens), P14416 | activation, % (concentration not given with the values) | actives 0.084% (n = 360,000) | AID 624465, 2012; in the data active = activation above about 40%; inconclusive = about 15% to 40%; inactive = below about 15%; also: compound concentration not given in the record; the text of the record calls up to 30% inactive
Target sequence (P14416 whole entry, looked up): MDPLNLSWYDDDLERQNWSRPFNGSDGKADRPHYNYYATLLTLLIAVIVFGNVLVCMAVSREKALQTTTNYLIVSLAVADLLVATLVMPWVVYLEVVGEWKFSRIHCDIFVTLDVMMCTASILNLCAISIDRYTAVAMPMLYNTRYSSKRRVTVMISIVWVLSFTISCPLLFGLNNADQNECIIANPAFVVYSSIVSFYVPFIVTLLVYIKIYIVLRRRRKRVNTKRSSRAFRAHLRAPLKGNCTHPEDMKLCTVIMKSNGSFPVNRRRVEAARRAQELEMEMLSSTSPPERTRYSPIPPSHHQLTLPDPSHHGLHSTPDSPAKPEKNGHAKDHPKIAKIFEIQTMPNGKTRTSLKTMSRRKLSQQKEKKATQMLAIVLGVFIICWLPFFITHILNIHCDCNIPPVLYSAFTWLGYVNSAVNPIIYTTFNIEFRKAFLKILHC
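Agonist mode: compounds alone added to overnight-plated D2 PathHunter cells for 90 min at 37 C, with 57 uM final dopamine (EC100) defining full response. Beta-arrestin recruitment detected by chemiluminescent reagent, read after 1 h at ambient temperature.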
Menin MLL FP FL = qHTS Assay for Inhibitors Targeting the Menin-MLL Interaction in MLL Related Leukemias: Competition With Fluorescein Labeled MLL-derived Peptide | 290,000 tested, under 10 active | Fluorescence polarization, fluorescein-MLL peptide displacement from menin | AID 1766, 2009 | FP activity change, % at 61.4 µM; inconclusive = falling polarisation curve, or a change in total fluorescence; inactive = total fluorescence flat and polarisation flat or rising; no compound was filed as active; the % refers to the polarisation; negative = inhibition;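 also: % of control where 0% means no effect; inhibitors lower the polarisation; unlabelled MLL peptide was the positive control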
PINK1 modulator = A Quantitative High throughput Screen to Identify Chemical Modulators of PINK1 Expression; PINK1 immunofluorescence, high-content cytometry, 24 h; Potency, µM (top dose mostly 76.6 µM), inactives show at the top dose activation (PINK1 increase), hits mostly activators; actives 0.2% (n = 410,000); active = well fitted activation curve with a large enough effect; inconclusive = small, poorly fitted or top-dose-only effect; inactive = flat fitted curve, though single readings scatter; cell line not stated here;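 also: potency is read from the fitted curve at half-maximal effect; % of control where 0% means no effect; nearly all actives have a fitted effect of over 65% in size; a mitochondrial uncoupler was the plate control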
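Readout is PINK1 immunofluorescence, quantified alongside mitochondrial, cell and nuclear markers by laser-scanning microplate cytometry. Cells from a stable line were exposed to compound titrations (5 concentrations) for 24 hours, with CCCP controls.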
gsp antag = qHTS for Antagonists of gsp, the Etiologic Mutation Responsible for Fibrous Dysplasia/McCune-Albright Syndrome: qHTS; gsp-mutant cells, cAMP HTRF, 30 min; control for the full effect not named in the record; Potency, µM (series often up to 76.9 µM), for inactives: at the top dose activity change, negative = inhibition, usual class: inhibitors; actives 0.4% (n = 340,000); AID 624288, 2012; active = falling curve of any shape with a large fitted effect; inconclusive = falling curve, mostly with a smaller effect; inactive = flat or rising curve; cell line not stated here;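 also: intracellular cAMP measured with PDE inhibitor Ro 20-1724 present during compound exposure; potency is read from the fitted curve at half-maximal effect; % is scaled to controls: 0 for no effect and ±100 for the full control effect; nearly all actives have a fitted effect of over 65% in size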
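HTRF cAMP read-out (cAMP-d2 plus anti-cAMP antibody-K in lysis buffer, 30 min RT). Before lysis, cells are exposed to compounds with […] for 30 min at 37C in DPBS containing Ca/Mg, BSA and Tween 20.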
gsp ag = qHTS for Agonist of gsp, the Etiologic Mutation Responsible for Fibrous Dysplasia/McCune-Albright Syndrome: qHTS | gsp mutant cells, cAMP HTRF, 30 min; control for the full effect not named in the record | Potency, µM (highest dose often 76.9 µM), without a hit: at the top dose activation (cAMP increase), usual class: activators | actives 0.13% (n = 340,000) | AID 624287, 2012; active = well fitted activation curve with a large enough effect; inconclusive = small, poorly fitted or top-dose-only effect, or another doubt; inactive = no such curve, though single readings can be large or run the other way; cell line not stated here;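 also: phosphodiesterase inhibitor Ro 20-1724 added with compounds to block cAMP breakdown; potency is read from the fitted curve at half-maximal effect; nearly all actives have a fitted effect of over 60% in size; about a fifth of the inactives were tested at one dose only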
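Cells stably selected in G418 were plated at 2000/well, grown 16-24 hr, then given compounds in DMSO with the PDE inhibitor […] (300 uM solution added) for 30 min at 37C; cAMP was read by HTRF.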
ClpP mod = qHTS Assay for Activators of ClpP. ATP-dependent Clp protease proteolytic subunit (Bacillus subtilis (strain 168)), P80244. actives 1.9% (n = 340,000). Potency, µM (series often up to 57.5 µM), inactives show at the top dose activity change, negative = active. AID 651965, 2013. purified B. subtilis ClpP, FRET peptide cleavage, 20 min; active = well fitted falling curve with a large enough effect; inconclusive = small, poorly fitted or top-dose-only effect; inactive = no such curve, though single readings can be large or run the other way; also: potency is read from the fitted curve at half-maximal effect; the source files actives as falling curves though it sought activators and does not explain the sign; nearly all actives have a fitted effect of over 65% in size; many hits overshoot -100%
Target sequence (P80244 whole entry, looked up): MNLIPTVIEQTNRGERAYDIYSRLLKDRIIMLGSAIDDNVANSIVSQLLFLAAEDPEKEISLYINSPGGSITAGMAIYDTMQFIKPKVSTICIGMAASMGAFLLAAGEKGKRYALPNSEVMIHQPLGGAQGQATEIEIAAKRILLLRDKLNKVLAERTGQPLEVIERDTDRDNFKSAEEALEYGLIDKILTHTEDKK
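Buffer: 100 mM Tris/HCl pH8, 100 mM KCl, 0.05% low protease BSA, 2.5% glycerol, 0.01% Tween-20. ClpP 10 microg/mL final; 20 min RT; delta FRET normalized to ADEP and DMSO controls.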
Starred values were filed as active, the others as inactive; & = joins results of further samples; [ ] = dose if it differs, or a comment. These rows are one share of the data; the hit share may differ from the screen's.

How did Cc1c(C(c2ccccc2Cl)c2c(O)c3ccccc3oc2=O)c(=O)n(-c2ccccc2)n1C (configuration not stated) do in these assays?
Sfp PPTase inh: 1%; D2 ag: -1.2; Menin MLL FP FL: -0.1; PINK1 modulator: -0.3%; gsp antag: inconclusive; gsp ag: 3%[15.4 µM]; ClpP mod: 0.4%

What do the screens show for `Nc1c(C(=O)NCCCc2ccccc2)c2nc3ccccc3nc2n1Cc1cccs1`?
Sfp PPTase inh: -12%; D2 ag: -4.6; Menin MLL FP FL: 11; PINK1 modulator: 18%[38.3 µM]; gsp antag: 1%; gsp ag: inconclusive; ClpP mod: inconclusive

How did O=P(c1ccccc1)(c1ccccc1)N1CCCCC1 do in these assays?
Sfp PPTase inh: 5%; D2 ag: -4.4; Menin MLL FP FL: 1.1; PINK1 modulator: -1.1%; gsp antag: -13%; gsp ag: 3%; ClpP mod: 1.6%

What do the screens show for `CCOc1ccc(C2SCC(=O)Nc3c2c(=O)[nH]n3C2CCCCCC2)cc1` (configuration not stated)?
Sfp PPTase inh: 13%; D2 ag: -3.8; Menin MLL FP FL: 1.5; PINK1 modulator: 21%; gsp antag: 2%; gsp ag: -9%; ClpP mod: 1.7%

What do the screens show for `COc1ccc(NC(=O)c2cn(CCC#N)nc2-c2ccc(OC)c(OC)c2)cc1`?
Sfp PPTase inh: 10%; D2 ag: -3.4; Menin MLL FP FL: -1.5; PINK1 modulator: 1.9%; gsp antag: 11%; gsp ag: -4%; ClpP mod: -0.1%

Results for C[n+]1c(-c2ccccc2)cc(-c2ccc(Cl)cc2)cc1-c1ccccc1 ?
Sfp PPTase inh: -1%; D2 ag: 2.5; Menin MLL FP FL: -5.8; PINK1 modulator: -2.2%; gsp antag: -4%; gsp ag: 32%

How did c1ccc2c(c1)[IH]c1ccccc1-2 do in these assays?
D2 ag: 4.1; PINK1 modulator: -0.3%; gsp antag: -21%; ClpP mod: 1.4%

What do the screens show for `O=C(Nc1ccc2ccccc2c1)c1nn(C23CC4CC(CC(C4)C2)C3)cc1Br`?
Sfp PPTase inh: 4%; D2 ag: 0.1; PINK1 modulator: -1.4%[38.3 µM]; gsp antag: -6%; gsp ag: -2%; ClpP mod: 20µM*

How did CCCCC(CC)COC(=O)c1ccccc1C(=O)OCC(CC)CCCC (configuration not stated) do in these assays?
D2 ag: -5.3; PINK1 modulator: 1.2%; gsp antag: 2%; ClpP mod: -0.2%

How did COc1ccc([N+](=O)[O-])cc1N=Cc1c(O)n(CCc2ccccc2)c(=O)n(C(C)C)c1=O do in these assays?
Sfp PPTase inh: -11%; D2 ag: -3.9; Menin MLL FP FL: 1.1; PINK1 modulator: 1.3%; gsp antag: -11%; gsp ag: -9%[15.4 µM]

Results for COc1ccc(N2C(=O)NC(=O)C(CCc3ccncc3)(CCc3ccncc3)C2=O)cc1 ?
Sfp PPTase inh: -8%; D2 ag: -2.6; Menin MLL FP FL: 1.4; gsp antag: -4%; gsp ag: 19%; ClpP mod: 0.1%

How did C/C(=N\N=C(N)N)c1ccccc1 do in these assays?
Sfp PPTase inh: 12%; D2 ag: -1.1; Menin MLL FP FL: 7.1; PINK1 modulator: 1.4%; gsp antag: 6%; gsp ag: 15%[15.4 µM]

How did CC(=NCC1CCCO1)c1c(O)n(-c2ccccc2)c(=O)[nH]c1=O (configuration not stated) do in these assays?
Sfp PPTase inh: 7%; D2 ag: -2.6; Menin MLL FP FL: 4.6; PINK1 modulator: 0.1%; gsp antag: 1%; gsp ag: -5%; ClpP mod: -0.1%

What do the screens show for `Cc1cccc(-n2c(O)c(C)c(=O)[nH]c2=S)c1`?
Sfp PPTase inh: 13%; D2 ag: -3.5; Menin MLL FP FL: 1.4; PINK1 modulator: 0.0%; gsp antag: 3%; gsp ag: 26%; ClpP mod: 1.1%

What do the screens show for `CCCCCCC(=O)N/N=C/c1c(O)n(CCCC)c(=S)[nH]c1=O`?
Sfp PPTase inh: 21%; D2 ag: -6.4; Menin MLL FP FL: inconclusive; PINK1 modulator: -0.6%; gsp antag: 2%; gsp ag: -4%[15.4 µM]

What do the screens show for `COc1cccc(NC(=O)CN2CC(c3ccccc3)CC2=O)c1` (configuration not stated)?
Sfp PPTase inh: inconclusive; D2 ag: -0.3; Menin MLL FP FL: 0.9; PINK1 modulator: -4.4%; gsp antag: 11%; gsp ag: 14%; ClpP mod: 1.4%

What do the screens show for `COC(=O)C1=C(c2ccc(F)cc2OCc2ccccc2)C[C@@H]2CC[C@H]1N2C(=O)NCc1ccccc1Cl`?
D2 ag: 1.0; PINK1 modulator: -0.8%; gsp antag: -16%; gsp ag: 24%; ClpP mod: -5.2%

How did O=C1CC(=O)N(c2cccc(Cl)c2)C(=O)N1 do in these assays?
Sfp PPTase inh: -7%; D2 ag: -0.4; Menin MLL FP FL: inconclusive; PINK1 modulator: 1.6%[38.3 µM]; gsp antag: 1%; gsp ag: -10%; ClpP mod: -3.1%

How did NC(=O)c1ccsc1NC(=O)COC(=O)Cc1ccccc1 do in these assays?
D2 ag: -6.5; PINK1 modulator: -0.5%; gsp antag: -11%; gsp ag: 10%; ClpP mod: -4.2%

What do the screens show for `COc1ccc(-n2c(-c3ccc(C)cc3)nc3ccccc3c2=O)cc1`?
Sfp PPTase inh: -19%; D2 ag: -13; Menin MLL FP FL: 0.5; PINK1 modulator: 1.2%; gsp antag: -15%; gsp ag: -12%[15.4 µM]; ClpP mod: 2.0%

Results for N#Cc1ccccc1Cn1cc(C(=O)C2CC2)c2ccccc21 ?
Sfp PPTase inh: 8%; D2 ag: 0.0; Menin MLL FP FL: 4.3; PINK1 modulator: 4.4%; gsp antag: inconclusive; gsp ag: inconclusive; ClpP mod: -7.7%

How did COc1cc(C(c2c(C)[nH]n(-c3ccccc3)c2=O)c2c(C)[nH]n(-c3ccccc3)c2=O)cc(OC)c1OC do in these assays?
Sfp PPTase inh: -8%; D2 ag: -3.7; Menin MLL FP FL: inconclusive; PINK1 modulator: -4.7%[38.3 µM]; gsp antag: -4%; gsp ag: -6%; ClpP mod: 3.6%

What do the screens show for `NC(=S)/N=C/c1c(O)[nH]c(=O)[nH]c1=O`?
Sfp PPTase inh: -18%; D2 ag: -6.2; Menin MLL FP FL: 12; PINK1 modulator: 0.2%; gsp antag: 7%; gsp ag: inconclusive; ClpP mod: -3.4%

What do the screens show for `c1ccc(-c2nc(N3CCOCC3)s[n+]2-c2ccccc2)cc1`?
Sfp PPTase inh: 7.9µM*; D2 ag: -0.4; Menin MLL FP FL: 3.0; PINK1 modulator: 2.9%; gsp antag: 8%; gsp ag: -6%; ClpP mod: -3.2%

Results for CN(C)C1CCc2[nH]c3c(F)cc(F)cc3c2C1 (configuration not stated) ?
D2 ag: 1.6; PINK1 modulator: -0.3%; gsp ag: -1%; ClpP mod: 1.5%

How did CC(=O)OC12COC1CC(O)C1(C)C(=O)C(O)C3=C(C)C(O)CC(O)(C(OC(=O)c4ccccc4)C21)C3(C)C (configuration not stated) do in these assays?
D2 ag: -5.5; PINK1 modulator: -0.9%; gsp antag: -8%; gsp ag: 15%; ClpP mod: -2.5%

What do the screens show for `CCN1CC=C(c2c[nH]c3ccccc23)CC1`?
Sfp PPTase inh: 0%; D2 ag: -2.6; Menin MLL FP FL: -1.8; PINK1 modulator: -0.5%; gsp antag: 1%; gsp ag: 8%; ClpP mod: -16%

Results for NS(=O)(=O)c1ccc(N=Cc2c(O)n(C3CCCCC3)c(=O)n(C3CCCCC3)c2=O)cc1 ?
Sfp PPTase inh: 1%; D2 ag: -1.4; Menin MLL FP FL: 5.9; PINK1 modulator: 8.9%[38.3 µM]; gsp antag: 4%; gsp ag: -48%[inhibitor]; ClpP mod: -24%

Results for CC(C)(C)C(=O)O[C@H]1CC[C@@]2(C)C(=CC(=O)C3C2CC[C@]2(C)C(=O)[C@H](O)CC32)C1 (some centres not stated) ?
D2 ag: 3.7; PINK1 modulator: -0.3%; gsp antag: 2%; gsp ag: -35%

What do the screens show for `Cc1ccc(OCC(=O)N2CCN(Cc3ccc4c(c3)OCO4)CC2)cc1`?
Sfp PPTase inh: -23%; D2 ag: -4.2; Menin MLL FP FL: -3.8; PINK1 modulator: 2.2%; gsp antag: 12%; gsp ag: -9%[15.4 µM]

How did O=C(O)C1Cc2ccccc2N2CCCC12 (configuration not stated) do in these assays?
Sfp PPTase inh: 7%; D2 ag: 2.9; Menin MLL FP FL: -8.7; PINK1 modulator: 0.8%; gsp antag: -6%; gsp ag: -21%

Results for COc1ccccc1C1=NCc2nnc(CSC)n2-c2ccc(Cl)cc21 ?
D2 ag: -3.1; PINK1 modulator: -0.9%; gsp antag: -3%; gsp ag: inconclusive

How did CNC(=O)Oc1cccc2c1OC(C)(C)O2 do in these assays?
Sfp PPTase inh: 16%; D2 ag: -3.9; Menin MLL FP FL: -0.6; PINK1 modulator: 3.0%&-0.9%; gsp antag: 2%; gsp ag: 2%

Results for ClC(Cl)=C(c1ccc(Cl)cc1)c1ccc(Cl)cc1 ?
Sfp PPTase inh: 0%; D2 ag: -7.1; Menin MLL FP FL: -0.1; PINK1 modulator: 11%&2.2%; gsp antag: -9%; ClpP mod: 0.7%

How did COc1ccc(C2=NCC(=S)Nc3ccc(Cl)cc32)cc1OC do in these assays?
D2 ag: 0.6; PINK1 modulator: 16%; gsp antag: -9%; gsp ag: 12%
